Compound activity (PubChem)
PABP FP inh: PABP-poly(A) binding inhibition. P11940. PABP-poly(A) RNA binding, fluorescence polarization. inhibition, % at 35 µM. 290,000 compounds, 1% hits;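 active means 50% or more with normal probe brightness, or confirmed in later tests; about a fifth of its hits are not listed in these tables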;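 further: calls also rest on retests at 20 µM and on dose response follow-up; controls were probe without protein and protein plus probe with vehicle; some compounds called inactive have numbers as strong as hits; many hits fall short of the cut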
Target sequence (P11940 whole entry, looked up): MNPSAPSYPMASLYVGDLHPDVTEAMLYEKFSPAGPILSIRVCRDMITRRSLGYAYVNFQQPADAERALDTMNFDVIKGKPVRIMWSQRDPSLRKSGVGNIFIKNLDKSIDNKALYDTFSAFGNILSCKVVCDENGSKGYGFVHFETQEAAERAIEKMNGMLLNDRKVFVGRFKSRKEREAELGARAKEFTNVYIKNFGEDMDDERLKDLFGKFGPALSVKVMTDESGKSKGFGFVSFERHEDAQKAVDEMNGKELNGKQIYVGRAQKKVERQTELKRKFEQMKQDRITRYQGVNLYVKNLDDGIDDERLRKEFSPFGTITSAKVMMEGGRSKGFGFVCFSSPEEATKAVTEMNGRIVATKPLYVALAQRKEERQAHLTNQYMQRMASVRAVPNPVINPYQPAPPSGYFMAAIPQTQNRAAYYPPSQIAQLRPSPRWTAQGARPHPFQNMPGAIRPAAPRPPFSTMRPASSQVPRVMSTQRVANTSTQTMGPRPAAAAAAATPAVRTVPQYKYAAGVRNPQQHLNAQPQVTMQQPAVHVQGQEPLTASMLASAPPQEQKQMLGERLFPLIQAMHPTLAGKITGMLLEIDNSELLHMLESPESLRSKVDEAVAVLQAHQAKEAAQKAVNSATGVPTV
eIF4H inh: inhibitors of RNA binding by human eIF4H; eIF4H fluorescence polarization binding assay; inhibition, % at 35 µM; 290,000 compounds, 0.94% hits; AID 2012;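 active means 50% or more with normal probe brightness, or confirmed in later tests; about a fifth of its hits are not listed in these tables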;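 further: calls also rest on retests at 20 µM and on dose response follow-up; 0% = protein and probe with vehicle and 100% = probe without protein; strong numbers were not always called active; many hits fall short of the cut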
CSC inhib: blocks cancer stem cells. cancer stem cell-like cells viability, luminescence. inhibition, % at 7.5 µM. 300,000 compounds, 1.1% hits. AID 2717;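 active means mean at 75% or more and at least half the replicates too; tested in HMLE shEcad cells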;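 further: 0% = median of negative and 100% = median of positive control wells; the first replicate is given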
Rce1 inhib: inhibitors of yeast Ras-converting enzyme | Q03530 | yeast membranes, quenched prenylated peptide cleavage fluorescence | calls only | 290,000 compounds, 0.27% hits | AID 2563;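 active means fall in fluorescence gain of 50% or more versus controls, with final raw signal at or below 3038400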;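 further: plate controls were neutral control wells for no effect and wells lacking membranes for full effect; tested at 10 µM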
HIV Env fusion: inhibitors of HIV Env-mediated cell fusion. HeLa-JRFL Env/CEM21 cell fusion, luciferase. inhibition, % at 12.3 µM. 360,000 compounds, 1.1% hits. AID 651610;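 active means mean replicate inhibition score of at least 50 and every replicate individually at or above 50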;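 further: 0% = plate neutral controls and 100% = maraviroc near 300 nM; one replicate is shown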
UUG fidelity: yeast start codon fidelity modulation. activity score, % at 18.7 µM. 350,000 compounds, 0.13% hits. S. cerevisiae UUG-firefly luciferase reporter, luminescence/redox ratio. AID 602363;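 active means replicate mean at a twofold rise or more, about +100% in these data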;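 further: firefly luciferase made from a UUG start codon reports start codon fidelity; reporter light over untreated wells divided by growth signal over untreated wells; some hits fall short of that in this replicate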
MT1-MMP act inh: blocks activation of human MT1-MMP; P50281; HT1080 RFP-PRO-GFP cells, GFP/RFP ratio fluorescence, overnight; percent of plate control window, DMSO zero; GFP/RFP ratio change, % at 20 µM; 360,000 compounds, 0.061% hits; AID 651647;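 active means GFP/RFP ratio change of at least 30% with cell ATP level not reduced by more than half and red fluorescence within 50% of control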; further: strong numbers were not always called active
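Assay system: HT1080 cells carrying an RFP-PRO-GFP reporter | Dosing: Single dose of 20 µM compound, 1% DMSO final | Incubation: Cells overnight before dosing, compound overnight, 37 °C, 5% CO2 | Evaluation: GFP/RFP fluorescence ratio | Control set: DMSO and RFP-L50D-GFP cell wells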
MT1-MMP act inh RFP: second read-out of MT1-MMP act inh, no call of its own (marks repeat the call); RFP signal change, %; measured here: RFP expression control read;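 0 = vehicle wells; hits needed this value within 50% of zero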
* hit, by the source's call; i = inactive; / = not tested or not shown.

entry	smiles	PABP FP inh	eIF4H inh	CSC inhib	Rce1 inhib	HIV Env fusion	UUG fidelity	MT1-MMP act inh	MT1-MMP act inh RFP
1	COc1ccc(/C=C2\SC(=S)N(CCC(=O)NCCCn3ccnc3)C2=O)cc1	-6.5	-10.0	28.0	i	11.0	-7.8	1.1	-1.3
2	CCOc1ccc2nnnn2n1	-5.0	-6.6	1.3	i	/	-8.3	-1.6	0.7
3	OC(COc1ccccc1)CN1CCN(c2cccc(Cl)c2)CC1 (centres undefined)	/	/	/	/	17.9	-8.6	3.7	1.9
4	COc1cc2cc(CN(CCc3ccccc3C)C(=S)NCCCN(C)C)c(=O)[nH]c2cc1OC	0.0	-6.3	2.5	i	-42.1	/	-6.0	-4.3
5	Cc1nonc1CC(=O)N1CCCC(C(=O)c2cccc(C(F)(F)F)c2)C1 (centres undefined)	-20.3	-0.1	-9.3	i	22.2	8.0	1.7	1.1
6	COc1ccccc1OCC(=O)N1CCCCCC1	/	/	/	/	-7.0	-10.0	3.0	-1.3
7	CC(=O)c1ccc(Nc2cc(C)nc3ccccc23)cc1	6.1	-8.8	25.6	i	-1.8	/	-7.4	-4.0
8	CCc1nc2ccc(C(=O)NCc3ccc4c(c3)OCO4)cn2c1N(C)Cc1ccc(OC)cc1	/	/	/	/	27.4	-26.5	-2.0	-1.2
9	CCc1nnc(NC(=O)c2ccc(Br)c(S(=O)(=O)N3CCOCC3)c2)s1	0.3	7.8	-12.8	i	36.0	-13.9	-4.8	-20.2
10	COc1ccc(C(c2c(C)[nH]n(C(N)=S)c2=O)C(C#N)C#N)cc1 (centres undefined)	2.6	-7.9	2.6	/	-8.4	-40.3	3.6	3.8
11	CCCCn1nnnc1C(CCc1ccccc1)N1CCN(C/C=C/c2ccccc2)CC1 (centres undefined)	/	/	/	/	13.6	8.8	5.2	-7.1
12	Cc1ccc(NC(=O)CSc2nc3c(c(=O)[nH]2)CCC3)c(C)c1	3.3	-5.1	-5.5	i	-0.3	11.7	6.9	0.8
13	COc1ccc(/C=N/N(C)C2=NCCN2)c(OC)c1OC	3.7	-10.7	-5.9	i	1.6	-13.6	1.9	-0.3
14	Cc1cccc2c(C(=O)N3CCCCC3)cc(-c3ccccc3)nc12	0.3	2.1	44.6	i	21.7	6.5	-4.4	-1.3
15	Cc1ccc(Cl)cc1N1CCN(CC(O)COCc2ccco2)CC1 (centres undefined)	-2.8	-1.3	36.6	i	13.8	/	-0.3	0.3
16	C=CCOc1c(Br)cc(CNc2nccs2)cc1OC	-6.4	-9.1	-4.9	i	-7.6	-5.2	-6.8	-5.5
17	CN(C(=O)c1cccc(C#N)c1)c1nnc(-c2ccccn2)s1	-9.2	1.0	-36.4	i	/	-1.4	2.7	0.0
18	Cc1c([N+](=O)[O-])c(C(=O)Sc2ccc(Br)cc2)nn1C	-5.7	8.6	9.7	i	-11.5	-9.7	9.7	3.7
19	O=C(CCC(=O)Nc1ccccc1Cl)NNC(=O)Nc1cccc([N+](=O)[O-])c1	4.5	20.5	-39.4	i	11.0	-20.1	-1.1	-2.0
20	COc1cccc(C(C(=O)NC2CCCC2)N(Cc2ccccc2OC)C(=O)c2ccco2)c1 (centres undefined)	-5.1	-6.9	-11.5	i	/	3.2	-1.8	0.2
21	CCOC(=O)CN1N=C(/C=C/c2ccc(OC)cc2)CCC1=O	-15.2	-1.0	/	i	/	-39.0	4.2	5.2
22	COc1ccc(NC(=S)NCC2CCCO2)c(OC)c1 (centres undefined)	-2.5	-14.9	-6.8	i	-87.7	-31.3	-4.7	1.8
23	O=c1c2c3c(sc2ncn1/N=C/c1ccco1)CCCC3	-3.0	-2.7	-10.9	i	/	/	-0.3	3.2
24	O=C(NCc1ccc(F)cc1)C1CCCN(S(=O)(=O)c2cccnc2)C1 (centres undefined)	-4.8	5.4	-9.2	i	1.8	-17.1	-0.6	2.7
25	O=C1CN(C(=O)COc2ncnc3ccccc23)c2ccccc2N1	-3.4	-7.7	-0.5	i	/	/	0.8	4.3
26	CCN(CC)S(=O)(=O)c1ccc(OC)c(NC(=O)COc2ccccc2[N+](=O)[O-])c1	8.0	14.7	-2.0	i	4.1	/	-2.3	-1.7
27	C=CCNC(=O)N[C@@H](Cc1ccccc1)C(=O)OC	-14.1	-6.9	-17.9	i	9.6	-11.9	0.4	7.4
28	C[C@@H]1C[C@H](Nc2ccccc2)c2ccccc2N1C(=O)c1cccnc1	-0.6	-10.4	-6.8	i	/	0.2	/	/
29	Fc1ccc(-c2nnc(Cc3nnc(-c4ccc(F)cc4)o3)o2)cc1	1.1	-1.6	0.1	i	/	/	-8.3	-1.5
30	CC(=O)Nc1cc(O)cc(O)c1	-4.0	13.6	9.9	i	7.0	0.9	-0.7	-1.1

New compounds follow.
entry	smiles	PABP FP inh	eIF4H inh	CSC inhib	Rce1 inhib	HIV Env fusion	UUG fidelity	MT1-MMP act inh	MT1-MMP act inh RFP
31	COc1ccccc1NC(=O)Cc1nn(C)c(=O)c2ccccc12	-3.2	0.0	-3.4	i	/	-19.1	2.6	-14.1
32	Oc1ccc(/C=N/Nc2ncc(Br)cn2)c(O)c1	-11.8	3.3	90.8*	i	-3.7	-20.9	-11.0	-14.1
33	c1ccc2cc(OCCN3CCCC3)ccc2c1	-0.6	0.8	/	i	/	-5.5	4.7	0.9
34	O=S(=O)(Nc1ccccn1)c1cc(Cl)ccc1Cl	-7.0	1.4	-6.6	i	-3.6	-3.6	-1.1	1.2
35	COc1ccc(NC(=O)c2ccc(-c3ccc(OC)cc3)s2)cc1	-7.9	4.6	-1.5	i	16.6	/	/	/
36	CCOCCCN(C)C1CCN(C(=O)c2oc3ccccc3c2NC(=O)Cc2cccc([N+](=O)[O-])c2)CC1	3.3	5.0	-12.6	i	24.8	-5.3	1.8	5.4
37	O=CN1CCN(C2CC(=O)N(c3ccc4c(c3)OCO4)C2=O)CC1 (centres undefined)	-3.4	-19.0	6.6	/	-28.6	/	-3.2	-4.6
38	COc1cc(NC(=O)C/C(C)=N/NC(=O)c2cccs2)c(OC)cc1Cl	-12.2	-7.6	-12.2	i	-5.4	-3.8	-4.9	1.1
39	CCOC(=O)C1=C(SCC)c2cc3c(n2C1=O)CCCC3	17.5	19.2	19.7	/	-18.9	-5.9	-22.3	3.5
40	Cc1cc(C)nc(CCNC(=O)c2cc(COc3c(C)cccc3C)on2)n1	-2.0	-2.5	-2.7	i	-8.0	-4.2	-2.9	-4.3
41	Cc1cc([N+](=O)[O-])cc(/C=N\NC(=O)C2COc3ccccc3O2)c1O (centres undefined)	-0.9	14.8	9.9	i	12.7	-40.9	3.4	1.0
42	COc1ccc(C(=O)NC(=S)N2CCOCC2)cc1OC	-6.2	-1.8	1.1	i	-1.3	-10.1	-2.7	-1.8
43	COc1ccc(NC(=O)CN(C)C(=O)c2cccc3ccccc23)cc1	/	/	-8.4	i	-14.8	-11.6	2.6	3.8
44	COC(=O)c1ccc(CNC(=O)C23CC4CC(CC(C4)C2)C3)cc1	3.5	-5.2	5.7	/	8.6	8.2	0.4	-0.1
45	CC(=O)N1CCC(c2c[nH]c3ccccc23)CC1	15.6	-5.0	-15.8	i	12.5	-13.9	3.2	2.0
46	O=C(O)C1CSC(c2ccccc2Cl)N1C(=O)c1ccc(Cl)cc1 (centres undefined)	37.5	0.1	1.7	i	-14.9	4.9	0.4	3.9
47	CC(=O)Nc1ccc(S(=O)(=O)N(C)CC(=O)OC(C)C(=O)NC2CCCC2)cc1 (centres undefined)	1.0	-2.9	/	i	3.2	8.2	0.9	4.9
48	O=C1c2cccc3cccc(c23)C(=O)N1CCCN(C(=O)c1cccs1)c1cccc(F)c1	-3.4	1.6	12.8	i	26.3	-3.9	-12.5	-15.8
49	COc1ccc(Cl)cc1NS(=O)(=O)c1cccc(C(=O)NCC2CCCO2)c1 (centres undefined)	2.9	-9.1	-9.0	i	/	8.3	0.5	-3.6
50	Cc1cc(C)cc(NC(=O)c2cc(C)nn2C)c1	-3.5	0.2	-3.9	i	-2.0	/	2.4	5.1
51	CCN(Cc1ccncc1)Cc1ccc(OC)cc1OC	13.4	5.0	-7.7	i	-1.4	-2.9	4.0	-3.4
52	Cc1ccc2c(c1)NCCO2	26.7	-4.3	/	i	-14.7	-1.6	0.3	6.8
53	O=C(c1cc(COc2c(F)cccc2F)on1)N1CCC(c2ccncc2)CC1	4.4	-8.0	15.7	i	-10.4	1.8	-8.8	-28.4
54	C=CCN1C(=O)/C(=c2\sc3nc(=O)c(Cc4ccc(OC)c(OC)c4)nn3c2=O)c2ccccc21	-0.4	-7.1	7.4	i	-2.3	-10.7	5.4	3.2
55	CCc1ccc(CNCc2ccc(OCC(O)CN(C)Cc3ccccc3)cc2)nc1 (centres undefined)	20.2	17.9	2.9	i	-8.1	-30.1	8.1	-8.0
56	O=C1c2ccccc2C(=O)N1CCCc1nc2ccccc2c(=O)n1CCCn1ccnc1	-10.4	-4.4	-7.7	i	17.0	-1.0	-3.9	-2.0
57	Cc1ccc(NC(=O)c2cccc(NC3=NC4CS(=O)(=O)CC4S3)c2)cc1C (centres undefined)	10.1	-9.3	/	i	-3.7	-8.7	0.9	9.4
58	Cc1ccn2c(=O)nc(SCC(=O)NCc3ccccc3)nc2c1	/	/	-1.8	i	1.9	-11.2	-1.0	2.7
59	C[n+]1ccccc1/C=C/c1ccc([N+](=O)[O-])cc1	18.7	-1.3	-18.0	i	18.5	4.6	-3.4	3.8
60	Cc1[nH]c2ccccc2c1SCC(=O)N1CCC(C)CC1	-3.9	-6.7	3.4	i	-1.9	/	-1.6	-0.4

Next section:
entry	smiles	PABP FP inh	eIF4H inh	CSC inhib	Rce1 inhib	HIV Env fusion	UUG fidelity	MT1-MMP act inh	MT1-MMP act inh RFP
61	C/C(CCc1ccco1)=N\NC(=O)CNc1c(Br)cc(Br)cc1Br	1.2	1.5	-8.3	i	15.6	/	0.0	2.5
62	Cc1ccccc1OCc1nnc2n1CC(C)S2 (centres undefined)	-18.3	-13.2	6.3	i	7.5	-13.7	5.5	6.8
63	CCOC(=O)COc1c(OC)cc(Cl)cc1C1Nc2ccccc2C(=O)N1c1ccc(F)cc1 (centres undefined)	-11.8	-1.3	13.2	i	/	-15.5	-0.5	-2.0
64	COc1ccc(/C=N/O)cc1COc1ccc(NC(C)=O)cc1	-0.7	-6.3	19.2	i	-17.0	-34.2	7.3	-3.3
65	CCCCn1c(N)c(N(CCOC)C(=O)c2cc3ccccc3cc2OC)c(=O)[nH]c1=O	/	/	-11.9	i	/	-21.9	-0.4	-0.6
66	CCOC(=O)N1CCc2c(sc3[nH]c(=S)[nH]c(=S)c23)C1	0.9	-7.1	-2.5	i	/	/	/	/
67	O=C(CCCN1C(=O)NC2(CCCC2)C1=O)N1CCN(S(=O)(=O)c2ccccc2)CC1	/	/	11.4	/	/	-10.0	-1.1	6.8
68	CCn1c(Cc2ccccc2)nnc1SCC(=O)Nc1ccccc1	-0.3	8.0	-13.4	i	-6.6	-6.6	-5.2	0.8
69	O=C(N/N=C/c1cc(Br)ccc1O)c1ccncc1	2.5	11.5	3.5	i	-4.9	-32.1	-2.8	-9.1
70	O=C(NNC(=S)NC(=O)c1ccccc1[N+](=O)[O-])c1ccccc1[N+](=O)[O-]	7.9	15.6	/	i	/	-3.9	6.0	0.4
71	CC1(C)SC(=S)N(NC(=O)Nc2cccc3ccccc23)C1N(O)C(=O)Nc1ccccc1 (centres undefined)	2.4	1.9	4.9	i	-4.6	/	-2.2	-3.1

Another view of some results above.
65) CCCCn1c(N)c(N(CCOC)C(=O)c2cc3ccccc3cc2OC)c(=O)[nH]c1=O
  PABP FP inh: /
  eIF4H inh: /
  CSC inhib: -11.9
  Rce1 inhib: i
  HIV Env fusion: /
  UUG fidelity: -21.9
  MT1-MMP act inh: -0.4
  MT1-MMP act inh RFP: -0.6
66) CCOC(=O)N1CCc2c(sc3[nH]c(=S)[nH]c(=S)c23)C1
  PABP FP inh: 0.9
  eIF4H inh: -7.1
  CSC inhib: -2.5
  Rce1 inhib: i
  HIV Env fusion: /
  UUG fidelity: /
  MT1-MMP act inh: /
  MT1-MMP act inh RFP: /

A portion of the library, so the mix of outcomes need not match the whole.
